Compound activity from PubChem BioAssay.
MbtI inh = blocks the Mycobacterium tuberculosis siderophore enzyme MbtI. P9WFX0. purified MbtI enzyme, fluorescence intensity read-out. inhibition, %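 (about 17 µg/mL by stock and volumes)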. actives 0.89% (n = 100,000). AID 493033;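 active = above 50% in both replicates, above 80% if mildly self-fluorescent; inactive = the rest, strongly fluorescent compounds included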;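 also: 0% = mean of negative and 100% = mean of positive controls; one replicate is shown; some compounds called inactive have numbers as strong as hits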
Target sequence (P9WFX0 whole entry, looked up): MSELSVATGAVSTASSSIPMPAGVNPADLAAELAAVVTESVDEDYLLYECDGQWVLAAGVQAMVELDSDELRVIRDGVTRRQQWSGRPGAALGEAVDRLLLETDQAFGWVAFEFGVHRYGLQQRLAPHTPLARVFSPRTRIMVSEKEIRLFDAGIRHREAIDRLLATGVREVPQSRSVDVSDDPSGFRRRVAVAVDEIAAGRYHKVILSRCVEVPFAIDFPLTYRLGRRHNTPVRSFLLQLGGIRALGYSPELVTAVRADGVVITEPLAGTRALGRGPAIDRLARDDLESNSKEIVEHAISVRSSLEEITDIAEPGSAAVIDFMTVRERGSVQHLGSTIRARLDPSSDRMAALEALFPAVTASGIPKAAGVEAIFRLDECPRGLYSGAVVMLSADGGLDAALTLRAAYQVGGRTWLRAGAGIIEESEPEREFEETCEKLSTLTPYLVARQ
Polio RdRp inh = inhibitors of poliovirus RNA polymerase binding and polymerization; poliovirus polymerase elongation, fluorescence polarization; stronger effect = lower value; % elongation, % (compound at 16.7 µg/mL); actives 0.66% (n = 150,000); AID 588519; in the data active = % elongation below about 90%; also: some results filed as inactive read as strong as hits
Target sequence (P03300 1749-2209 limits assumed): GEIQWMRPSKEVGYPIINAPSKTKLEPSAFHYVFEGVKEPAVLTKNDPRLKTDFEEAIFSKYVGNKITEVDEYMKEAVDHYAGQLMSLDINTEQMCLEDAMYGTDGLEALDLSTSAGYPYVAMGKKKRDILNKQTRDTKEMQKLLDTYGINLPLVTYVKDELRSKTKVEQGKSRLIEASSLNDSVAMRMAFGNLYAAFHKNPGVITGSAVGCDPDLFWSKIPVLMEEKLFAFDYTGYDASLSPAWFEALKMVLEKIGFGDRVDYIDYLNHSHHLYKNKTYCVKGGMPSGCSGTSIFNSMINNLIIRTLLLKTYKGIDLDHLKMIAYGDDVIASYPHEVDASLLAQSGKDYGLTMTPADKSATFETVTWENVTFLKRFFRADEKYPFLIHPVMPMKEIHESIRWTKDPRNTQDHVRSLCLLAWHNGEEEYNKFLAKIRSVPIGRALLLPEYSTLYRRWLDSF
MenB inh = Mtb MenB enzyme inhibition | P9WNP5 | AID 540299 | inhibition, %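 (about 12 µg/mL by stock and volumes)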 | MenB enzyme assay, absorbance read-out; some hits fall short of the stated cut | actives 0.43% (n = 100,000);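 active = mean of two replicates above 30%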;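 also: 0% = no compound and 100% = wells with inactive enzyme; the first replicate is given; strong numbers were not always called active; inactives centre near -10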
Polio RdRp inh intensity = recorded beside Polio RdRp inh, whose call it bears; % elongation; measured here: total intensity read-out; formula for this scale not given here;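 total fluorescence in place of polarization; lower means less elongation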
Starred values were filed as active, the others as inactive; i = inactive; · = no result given; & = joins results of further samples. This is a random part of the collection; about 1.8% have a hit in one of these screens.

nr	molecule	MbtI inh	Polio RdRp inh	Polio RdRp inh intensity	MenB inh
1	C=CCn1c(=C(C#N)C#N)s/c(=C\c2ccc(Br)cc2)c1=O	-16	94	129	-26
2	COc1ccc(C(=O)Nc2ccc(-c3cn4ccccc4n3)cc2)cc1	39	103	106	-30
3	Cc1ccc(CN(C(=O)COc2c(F)c(F)c(F)c(F)c2F)C2CCS(=O)(=O)C2)o1 (stereo not drawn)	14	105	105	-11
4	NC1=NC(c2cccc(Cl)c2)N(CCc2ccc(F)cc2)C(N)=N1 (stereo not drawn)	-1	101	104	7
5	CCC1(C)NC(=O)N(NC(=O)c2ccc(CSc3ncn[nH]3)cc2)C1=O (stereo not drawn)	-2	103	101	-23
6	Cc1ccc(C)c(SCC(=O)Nc2ccc(-n3cnnn3)cc2)c1	-3	101	108	2
7	Cc1cccc(C)c1N(C)C(=O)c1cnccc1C(F)(F)F	-9	103	99	-18
8	N#C/C(=C\c1ccc(-c2ccc(S(=O)(=O)N3CCOCC3)cc2)o1)S(=O)(=O)c1ccc(Br)cc1	-2	116	118	-86
9	Cc1csc2c(N3CCSCC3)ncnc12	-5	97	105	6
10	Cn1c(=O)cc(OCC(=O)NC2CCN(Cc3ccccc3)CC2)c2ccccc21	-5	101	93	-3
11	COc1ccc(CNc2ccc(F)cc2C)c2ccccc12	25	103	102	-16
12	CSc1ccccc1S(=O)(=O)C(C)(C)C	-15	103	103	-25
13	O=C(O)CN1C(=O)c2ccc(Oc3ccc4c(c3)C(=O)N(CC(=O)O)C4=O)cc2C1=O	-14	101	102	-9
14	O=C(CSc1cn[nH]n1)N1CCN(S(=O)(=O)c2ccccc2)C1	-11	100	102	-1
15	O=C(NC1CCCC1)c1cnn2c(C(F)F)cc(-c3ccccc3)nc12	2	102	108	-38
16	O=C(O)c1ccc2[nH]c3c(c2c1)CSCC3	·	84*	93*	0
17	CC1=Nc2ccccc2N=C(NC(=O)/C=C/C(=O)O)C1c1ccccc1 (stereo not drawn)	22	100	101	-7
18	COc1ccccc1CN1CCN(C(CC(C)C)c2nnnn2Cc2ccc(F)cc2)CC1 (stereo not drawn)	-2	101	103	33*
19	CCN(CC(=O)Nc1cc(Cl)ccc1C)C(=O)C1CCCCC1	12	102	102	4
20	CC(=O)OC1COC(NC(=S)Oc2ccccc2)C(OC(C)=O)C1OC(C)=O (stereo not drawn)	·	109	111	9
21	O=C(CN1C(=O)c2ccccc2C1=O)OC1CCOC1=O (stereo not drawn)	3	106	107	12
22	C=CCNC(=S)NNc1ccccc1Cl	20	104	108	-6
23	CC(=O)Nc1nc(C(C)(C)C)cs1	-12	100	103	-13
24	CCNC(=S)NCc1ccc2[nH]c(C)cc2c1	-2	102	102	0
25	COc1ccc(NC(=O)COC(=O)C2CCCCC2)cc1	-16	103	109	-30
26	O=C(CSc1nc2ccccc2c(=O)n1CCCN1CCOCC1)c1ccccc1	9	102	101	-23
27	O=C1CN=C(Nc2cccc(C(F)(F)F)c2)N1C1CCCC1	1	102	103	16
28	COCC(C)n1c(SCC(=O)c2ccc[nH]2)nc2ccccc2c1=O (stereo not drawn)	20	103	106	-14
29	O=C(CCC(=O)N1CCN(c2ccc(F)cc2)CC1)c1ccccc1	0	103	100	-19
30	O=C(NCc1nnc(SCC(=O)N2CCCC2)o1)c1c(F)cccc1Cl	-6	100	105	-13

nr	molecule	MbtI inh	Polio RdRp inh	Polio RdRp inh intensity	MenB inh
31	COC(=O)c1ccc(COC(=O)c2cccc(C(F)(F)F)c2)cc1	-8	103	102	·
32	N#Cc1nc2c(C#N)c(N)n(Cc3ccco3)c2nc1C#N	·	105	115	-40
33	CCCn1c(SCc2nc(N)nc(Nc3ccccc3C)n2)nnc1-c1ccncc1	-21	113	119	1
34	COc1cc(OC)cc(-c2nc3ccccc3c(=O)n2OC(=O)c2ccccc2Cl)c1	-2	104	108	5
35	CN(C)c1ccc(/C=N/NC(=O)Cc2ccccc2)cc1	4	104	102	-6
36	CSC(N)=Nc1c(Cl)cccc1Cl	-8	105	107	-7
37	CN(/N=C/c1cc(Cl)cc(Cl)c1O)C(=S)NC(C)(C)C	-1	107	122	-18
38	CN(C)S(=O)(=O)c1ccc(C(=O)N2CCCC2c2nc3ccccc3s2)cc1 (stereo not drawn)	10	102	95	-13
39	NNC(=O)c1c(-c2ccccc2)c(-c2ccccc2)nn2nnnc12	4	98	96	1
40	Cn1c(=O)n(-c2cccc(Cl)c2)c(=O)n1C	-20	99	103	5
41	O=C(CSc1nnc(-c2ccco2)o1)NCCCN1CCCC1=O	5	103	97	-24
42	FC(F)(F)c1cc(C(F)(F)F)c2c(n1)[nH]c1ccccc12	-31	101	106	-34
43	O=C(CN1C(=O)/C(=C/c2ccccc2F)Sc2ccccc21)N1CCN(c2ccc(F)cc2)CC1	-5	103	108	-42
44	COc1ccccc1C(C)NCC(=O)Nc1cc(C)on1 (stereo not drawn)	-4	102	108	3
45	Cc1cc(=S)cc(-c2ccccc2)n1CCN1CCOCC1	2	·	·	-45
46	CC1CC1c1ccc(/C=C/C(=O)O)o1 (stereo not drawn)	25	103	111	-15
47	CCc1nc2ccccc2c(C(=O)OCC#N)c1C	19	99	101	-7
48	CN(CC(=O)NC1=NCCS1)S(=O)(=O)c1ccc(Cl)cc1	23	103	102	8
49	Cc1onc(-c2c(Cl)cccc2Cl)c1NC(=O)NC1CCSC1 (stereo not drawn)	-10	103	105	-2
50	O=C(O)c1ccc2c(c1)C(=O)NC2=O	-16	102	101	-95
51	NNC(=O)c1cc2ccccc2[nH]1	16	100	105	4
52	O=C1N(c2cccc(Cl)c2)C(=Nc2cccc(Cl)c2)SC12CC2	-3	103	106	-15
53	COc1cccc(OCC(=O)Oc2ccc(Br)cc2)c1	-2	92	90	·
54	N#Cc1c(NC(NC(=O)c2ccco2)(C(F)(F)F)C(F)(F)F)sc2c1CCCCC2	1	101	104	2
55	COc1ccc(/C=C/C(=O)NC(=O)c2ccccc2OCC(=O)c2ccc(Br)cc2)cc1	0	99	97	-15
56	CCOc1ccc(CNC(=O)c2cc3oc4ccccc4c3n2CC)cc1	-1	106	100	-3
57	CC(C)(C)C(=O)COC(=O)c1ccc(Cl)cc1N	-124	103	104	·
58	O=C(OC(C(=O)NCc1cccs1)c1ccccn1)c1cccs1 (stereo not drawn)	-4	106	100	-87
59	O/N=C/c1ccc(N2CCOCC2)s1	23	104	113	4
60	CCn1c(=N)n(CC(O)c2ccccc2)c2ccccc21 (stereo not drawn)	-8	100	101	-14

Excerpt, entries 56 to 59
nr	molecule	MbtI inh	Polio RdRp inh	Polio RdRp inh intensity	MenB inh
56	CCOc1ccc(CNC(=O)c2cc3oc4ccccc4c3n2CC)cc1	-1	106	100	-3
57	CC(C)(C)C(=O)COC(=O)c1ccc(Cl)cc1N	-124	103	104	·
58	O=C(OC(C(=O)NCc1cccs1)c1ccccn1)c1cccs1 (stereo not drawn)	-4	106	100	-87
59	O/N=C/c1ccc(N2CCOCC2)s1	23	104	113	4

The listing picks up, starting three compounds before the break.
nr	molecule	MbtI inh	Polio RdRp inh	Polio RdRp inh intensity	MenB inh
58	O=C(OC(C(=O)NCc1cccs1)c1ccccn1)c1cccs1 (stereo not drawn)	-4	106	100	-87
59	O/N=C/c1ccc(N2CCOCC2)s1	23	104	113	4
60	CCn1c(=N)n(CC(O)c2ccccc2)c2ccccc21 (stereo not drawn)	-8	100	101	-14
61	c1ccc2c(c1)OCC(CNc1ncnc3c1oc1ccccc13)O2 (stereo not drawn)	-13	105	108	9
62	Cc1ccc(C)c(OCCC(=O)Nc2ccc3c(c2)OCO3)c1	-13	101	109	-9
63	COc1cc(/C=N/NC(N)=S)ccc1OCC(=O)N1CCOCC1	31	100	99	0
64	COC(=O)c1cncc(C(=O)OC)c1	-1	104	102	6
65	CC12CCC(c3c(C(=O)O)nn(-c4ccccc4)c31)C2(C)C (stereo not drawn)	31	102	102	-1
66	CCOC(=O)C1=C(N)Oc2cc(C)n(C)c(=O)c2C12C(=O)N(Cc1ccccc1)c1ccccc12 (stereo not drawn)	-9	103	106	-20
67	Cc1onc(-c2ccccc2)c1C(=O)NC1CC1	-4	102	105	-22
68	CC(Cc1ccccc1)[n+]1cc(/N=C(/N)[O-])on1 (stereo not drawn)	9	101	100	9
69	Clc1ccc(NC2=NCCS2)cc1Cl	9	103	106	·
70	CC1=CC(=C(C#N)C#N)c2ccccc2N1C	11	45	242	-23
71	CCOc1ccc(NC(=O)c2ccc(NC(=O)CSc3nnc(C)n3C3CC3)cc2)cc1	11	104	109	-12
72	CCOC(=O)c1[nH]c(COC(=O)C(NS(=O)(=O)c2ccc(Cl)cc2)C(C)O)c(C(=O)OCC)c1C (stereo not drawn)	-8	103	107	-37
73	Nc1ccc2nc(SCC(=O)c3ccccc3)sc2c1	10	104	103	-55
74	O=C1CNC(=O)C2(c3ccccc3)CCCN12 (stereo not drawn)	-297	102	99	14
75	CS(=O)c1ccc(-c2nc(-c3ccc(F)cc3)c(-c3ccncc3)[nH]2)cc1 (stereo not drawn)	i	100	102	·
76	c1ccc2c(c1)OCC(c1nn3cnnc3s1)O2 (stereo not drawn)	-13	103	101	-14
77	Cc1ccc(Sc2ncccc2C(=O)NCc2ccco2)cc1	10	·	·	-26
78	O=C(CBr)C12CC3CC(CC(C3)C1)C2	27	101	105	·
79	Cc1ccc(C(O)(c2ccc(C)c(C)c2)C2CN3CCC2CC3)cc1C (stereo not drawn)	-5	100	104	-14
80	CCN1C(=O)/C(=C2/Sc3ccc(OC)cc3N2C)SC1=Nc1cccc(O)c1	-2	105	99	-32
81	CCN(C(=O)C(C)C)c1ccccc1	-4	101	102	-28
82	CCC(C)OC(=O)C1CC=CCC1C(=O)Nc1cccc(Br)c1 (stereo not drawn)	·	105	110	-10
83	O=C(Cc1cccs1)NCCCc1ccccc1	-6	106	99	-65
84	Cc1cccc(N2CCN(C(=O)CCCN3C(=O)COc4ccc(C)cc43)CC2C)c1 (stereo not drawn)	-2	102	102	-10
85	CCCCn1c(SCCO)nc2c(c1=O)C1(CCCC1)Cc1ccccc1-2	27	100	101	-24
86	S=c1[nH]c2c(Cl)cc(Cl)cc2o1	20	100	98	-13
87	Cc1ccc(-n2nc3c4nonc4ccc3[n+]2[O-])cc1	-6	103	104	-17
88	Cc1ccc2cc(CCNC(=O)Cc3ccccc3)c(=O)[nH]c2c1	-20	100	103	-4
89	CC1=Nc2ccccc2Sc2c1c(=O)n(-c1ccccc1)c1ccccc21	·	113	122	-74
90	NC1=NN(c2cccc(C(=O)O)c2)C(=O)C1	-5	104	101	-143

nr	molecule	MbtI inh	Polio RdRp inh	Polio RdRp inh intensity	MenB inh
91	O=C(Nc1ccc2c(c1)CCC2)C1CCCO1 (stereo not drawn)	-18	100	102	3
92	O=C(CSc1nc2ccccc2o1)NC1CC1	-3	104	102	-9
93	CN(C(=O)CN1CCc2ccccc2C1)c1c(N)n(Cc2ccccc2)c(=O)[nH]c1=O	-5	103	106	-14
94	CC(C)(C)c1cc(O)c(O)c(Br)c1	101*	98	102	23
95	CCOC(=O)N(c1ccc(OC)cc1)S(=O)(=O)c1ccccc1	·	107	111	-6
96	OCc1nc2cc3ccccc3cc2[nH]1	112	103	106	-8
97	O=C(O)CCCN1C(=O)c2cccnc2Oc2ccc(Cl)cc21	-1	102	103	7
98	Cc1cc(C(=O)Cn2ncc(Cl)c(Cl)c2=O)c(C)n1-c1ccc2c(c1)OCCO2	-6	114	113	-3
99	Cc1cccc(Oc2nc3c4c(C)c(C)oc4ncn3n2)c1	1	101	103	16
100	COC(=O)c1cc2oc(C)cc2n1Cc1nc(-c2ccc(C)cc2)oc1C	4	102	103	15
101	COc1ccc2c(c1OC)CN(C)CCc1cc3c(cc1C(O)C2)OCO3 (stereo not drawn)	·	104	111	-4
102	Cc1cccc(N2CCN(S(=O)(=O)c3ccc(Cl)nc3)CC2C)c1 (stereo not drawn)	-8	104	97	-22
103	CCOc1ccc(S(=O)(=O)/N=C2/C=C(Sc3ncn[nH]3)C(=O)c3ccccc32)cc1	98	99	98	-21
104	CCCNC(=O)N1CCN(CC)CC1	-14	101	104	-26
105	CCn1c2ccccc2c2cc(CO)ccc21	90	100	108	-72
106	CCOC(=O)C1=C(C)NC(C)=C(C(=O)OC)C1c1cccc([N+](=O)[O-])c1 (stereo not drawn)	-5&-15	100&99&101	102&101&102	-3&-5
107	COC(=O)C1=C(C)N(c2ccc(OC)c(OC)c2)C(=O)/C1=C\c1cc(C)n(-c2ccc(F)cc2)c1C	3	99	104	-3
108	CC(C)(C)C(=O)Nc1nccs1	·	104	99	-8
109	CCOC(=O)C1=C(CC)Nc2ccccc2N=C1NC(=O)c1ccc(=O)n(C)n1	8	101	103	-24
110	CCOC(=O)C1(C/C(C)=N/NC(N)=S)CC(C)(C)OC1=O (stereo not drawn)	-5	105	100	-11
111	O=c1cc(C2CCN(C(=S)Nc3cccc(Cl)c3)CC2)[nH]n1-c1ccccc1	16	103	109	-64
112	CCCNC(=O)c1ccc2c(=O)n3nc(Nc4ccccc4CC)sc3nc2c1	73	101	101	-3
113	CCOC(=O)c1ccc(N=Cc2ccc(O)c(OC)c2)cc1	4	100	102	-9
114	N#Cc1c(/N=C/c2cc(Br)ccc2O)sc2c1C1CCN2CC1	-7	101	106	-34
